High-throughput results deposited in PubChem by several laboratories.
PKD1 inh: inhibitors of human PKD1 kinase, biochemical, fluorescence polarization; inhibition, %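 (about 10 µM by stock and volumes)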; PKD1 kinase fluorescence polarization assay; 0.056% of 200,000 active;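 active = inhibition of 50% or more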;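 also: controls were vehicle for no effect and a reference inhibitor for full effect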
HSV augment: enhancers of HSV replication in host cells, fold increase, host cell viability; HSV replication augmentation in cells; maximum fold increase; 0.005% of 220,000 active;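 active = peak rise of 1.5-fold or more in the series; tested in PC3 cells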;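 also: first round at 10 µM; read as green reporter fluorescence; hits show the peak of a series up to 25 µM; 1 = signal of infected wells without compound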
GALR2 agonist: GALR2 receptor agonists, primary screen, cell-based; activation, %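 (tested at 5 µM)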; AID 803, 2007; GALR2-expressing cells, agonist activation read-out; 0.48% of 140,000 active; Galanin receptor type 2 (Homo sapiens), O43603;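 active = above mean plus 3 SD of all compounds, about 5% in these data, not always enough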;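 also: 0% = vehicle buffer wells and 100% = reference agonist at full effect; tested in CHO reporter cells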
Target sequence (O43603 whole entry, looked up): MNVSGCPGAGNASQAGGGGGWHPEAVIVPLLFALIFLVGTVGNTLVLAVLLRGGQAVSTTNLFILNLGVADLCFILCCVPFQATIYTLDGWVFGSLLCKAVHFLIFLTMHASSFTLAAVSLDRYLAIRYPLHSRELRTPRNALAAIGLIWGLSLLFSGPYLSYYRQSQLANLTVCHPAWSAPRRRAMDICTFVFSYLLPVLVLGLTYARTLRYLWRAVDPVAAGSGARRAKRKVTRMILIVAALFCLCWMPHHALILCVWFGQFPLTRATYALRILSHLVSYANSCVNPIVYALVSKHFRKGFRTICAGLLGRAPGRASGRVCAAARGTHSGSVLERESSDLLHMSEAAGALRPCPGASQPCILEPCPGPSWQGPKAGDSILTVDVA
RGS16-Gao HTS: modulators of RGS16 binding to Galphao, primary screen, biochemical, human proteins, multiplexed bead flow cytometry; bead-based flow cytometry RGS16-Galphao binding, fluorescence; actives lie on both sides; binding response (% of control), % at 10 µM; 0.38% of 220,000 active;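 active = below 25% or above 175%, edge rows of some plates excepted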;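 also: Galphao activated by GDP with aluminum fluoride before binding; 100% = wells without compound and 0% = beads without RGS; some results beyond the cut were filed as inactive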
Target sequence (O15492 whole entry, looked up): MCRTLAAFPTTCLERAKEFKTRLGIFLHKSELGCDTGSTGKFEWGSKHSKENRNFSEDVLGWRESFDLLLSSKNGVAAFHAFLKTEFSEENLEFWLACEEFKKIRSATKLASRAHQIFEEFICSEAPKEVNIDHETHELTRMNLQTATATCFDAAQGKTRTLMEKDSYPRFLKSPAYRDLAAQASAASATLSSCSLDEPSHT
Target sequence (P09471 whole entry, looked up): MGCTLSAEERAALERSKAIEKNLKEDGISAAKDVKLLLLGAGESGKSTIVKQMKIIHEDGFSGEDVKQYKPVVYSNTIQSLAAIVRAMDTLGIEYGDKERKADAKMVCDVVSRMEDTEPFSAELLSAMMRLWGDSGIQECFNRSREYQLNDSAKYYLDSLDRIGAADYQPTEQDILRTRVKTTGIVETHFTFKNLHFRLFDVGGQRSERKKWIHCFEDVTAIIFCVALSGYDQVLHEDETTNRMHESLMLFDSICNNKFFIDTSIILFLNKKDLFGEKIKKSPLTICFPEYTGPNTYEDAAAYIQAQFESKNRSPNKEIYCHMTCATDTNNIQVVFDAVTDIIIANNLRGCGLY
Insulin prom inh: inhibitors of insulin promoter-driven GFP, primary screen, imaging, TRM-6 cells (human fetal islet line), eGFP reporter, cell count | inhibition, % at 2 µM | 0.9% of 130,000 active | AID 1273, 2008 | reporter expression induced with tamoxifen;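 active = inhibition above the mean plus 3 SD, with well images judged a real hit on visual review, cut at about 60% in these data, passing the limit was not always enough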
Insulin prom inh cell count: recorded beside Insulin prom inh, whose call it bears; normalized cell count, %; measured here: cell count, toxicity; reference of the scale not given here;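 cells exposed to compound for 48 h; stained nuclei by imaging scaled within each plate; lower means fewer cells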
HSV augment primary fold: second read-out of HSV augment, no call of its own (marks repeat the call); fold increase; compound at 10 µM; measured here: primary screen fold increase 10 uM; tested in PC3 cells;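 GFP signal in the first replicate; 1 = infected wells without compound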
Numbers without * were called inactive; i = inactive; nt = no result given; & = joins results of further samples; [ ] = remark or other dose.

Values run as follows: PKD1 inh	HSV augment primary fold	HSV augment	RGS16-Gao HTS	Insulin prom inh	GALR2 agonist	Insulin prom inh cell count
CN(Cc1ccon1)C(=O)CC1C(=O)NCCN1CC(C)(C)C (centres undefined)
  -10	0.95	i	93	nt	nt	nt
On1c(-c2ccccc2Cl)nc2ccccc21
  -2	1.1	i	86	41	nt	96
CCN(CC)S(=O)(=O)c1cccc(-c2nnc(SCCOc3ccc(Cl)cc3)o2)c1
  -7	0.87	i	96	nt	-2.1	nt
O=C(O)CCC(=O)Nc1ccccc1N1CCOCC1
  -9	0.94	i	103	55	-2.5	111
OCc1ncc(-c2ccccc2)s1
  nt	1	i	99	nt	nt	nt
O=C(Nc1ccc(Cl)cc1)c1sccc1-n1cccc1
  -3	0.9	i	106	-56	nt	100
Cc1ccc(CN2C(=O)CCC2C(=O)NCc2ccc3c(c2)OCO3)cc1 (centres undefined)
  -9	1.1	i	100	8	-0.5	126
COc1ccc(C2c3c(oc4ccccc4c3=O)C(=O)N2Cc2ccncc2)cc1OC (centres undefined)
  -9	0.95	i	nt	-32	1.0	112
C=CCNC(=S)N1CCC(C(N)=O)CC1
  4	0.93	i	109	17	nt	84
Cc1ccc(NC(=O)CSc2nc(=O)cc(N)n2-c2ccccc2)cc1
  -2	1	i	101	-10	-1.3	119
O=C1c2ccc(-c3ccc4c(c3)C(=O)N(CCO)C4=O)cc2C(=O)N1CCO
  nt	1.1	i	111	nt	nt	nt
COc1ccc(CC(=O)Nc2ccc(-c3csc(C)n3)cc2)cc1
  -5	0.81	i	103	-7	-1.8	87
O=C(CCS(=O)(=O)c1ccccc1)Nc1ccc(N2CCOCC2)cc1
  2	1.1	i	90	nt	nt	nt
CC(=O)NS(=O)(=O)c1ccc(NC(=O)NC2CCCCC2)cc1
  -11	0.98	i	99	13	-1.7	147
COc1ccc(-n2nc(C(=O)NCC(=O)NCCCN3CCCCCC3)c3ccccc3c2=O)cc1Cl
  -3	0.87	i	102	nt	nt	nt
Cc1ccc(C(=O)NC(=S)Nc2cccc(NC(=O)c3ccccc3)c2)cc1[N+](=O)[O-]
  -4	0.92	i	103	0	0.0	97
CCOC(=O)C1=C(CC)Nc2ccccc2N=C1NC(=O)CCNC(C)=O
  3	0.94	i	99	nt	nt	nt
COc1cccc2c(=O)n(CC(=O)N3CCN(c4ccccc4)CC3)ccc12
  -3	1	i	95	nt	-3.4	nt
CC(C)NC(=O)Nc1ccc(Br)cc1Cl
  -1	1.1	i	104	nt	nt	nt
C=CCN1C(=O)C(CC(=O)NCC)SC1=Nc1ccc(S(N)(=O)=O)cc1 (centres undefined)
  -6	0.86	i	107	-40	0.5	93
CC(C)(C)c1ccc(Oc2ccc(NC(=O)c3ccccc3C(=O)O)cn2)cc1
  nt	1	i	98	nt	nt	nt
Cn1cnc(S(=O)(=O)Nc2ccc(C(F)(F)F)cc2)c1
  -10	1	i	203	72	-2.4	72
O=C(CN1CCCCCC1)N/N=C/c1cccs1
  -2	0.93	i	104	nt	-0.4	nt
CCNc1nc(Oc2ccccc2)nc(OC(C)C(=O)OCC)n1 (centres undefined)
  -4	0.98	i	87	36	-0.4	64
COc1ccc(C)cc1-n1nnnc1SCC(=O)c1ccc2c(c1)OCCO2
  2	0.95	i	94	nt	-2.8	nt
Cc1ccc(C(=O)C2CCN(CC(=O)N3CCN(c4ccc(F)cc4)CC3)CC2)cc1
  0	0.96	i	96	-67	nt	131
CN(C)Cc1ccccc1Sc1cccc2ccccc12
  -6	0.72	i	92	-8	-0.8	110
COc1ccccc1NC(=O)c1ccc(NS(=O)(=O)c2ccc(F)c(Cl)c2)cc1
  -3	0.98	i	113	-10	0.0	116
O=C(NN=C1CCCC1)C(=O)Nc1cccc(C(F)(F)F)c1
  1	0.87	i	101	nt	-0.6	nt
O=C1CCCc2oc3ccc(O)cc3c21
  4	1	i	99	-6	1.3	63
Cc1ccccc1Oc1cc(NC(=O)CCCn2nc(C)c([N+](=O)[O-])c2C)cc([N+](=O)[O-])c1
  -2	0.58	i	104	-16	0.1	110
Cc1ccc(C(=O)NC(=S)Nc2ccc3c(c2)OCCO3)c(C)c1
  -1	0.91	i	100	-37	-1.1	86
CCc1c(C)sc2nc3c(C(=O)N4CCOCC4)cc(C(=O)c4cc(F)ccc4O)cn3c(=O)c12
  -3	1.3	i	93	nt	nt	nt
Cn1cc(CN(CCCN2CCOCC2)C(=S)Nc2cccc(Cl)c2)c2ccccc21
  -17	0.75	i	76	-79	-1.1	46
CCC(C)[C@H](NC(=O)Nc1ccc2c(c1)OCCO2)C(=O)OC (some centres undefined)
  nt	1.2	i	96	nt	nt	nt
O=C(CS(=O)(=O)c1cn(CC(=O)N2CCOCC2)c2ccccc12)Nc1ccccc1
  0	0.97	i	99	22	nt	132
COc1ccc(-n2c(C)cc(C(=O)COC(=O)c3cc(OC)c(OC)cc3NC(=O)c3cccs3)c2C)cc1
  -11	0.93	i	97	nt	-1.4	nt
OCCC1CN(Cc2ccc(Oc3ncccn3)cc2)CCN1C1CCCCC1 (centres undefined)
  nt	1	i	88	nt	nt	nt
Cc1ccc(/C(O)=C2/C(=O)C(=O)N(CCCn3ccnc3)C2c2ccccn2)cc1 (centres undefined)
  -15	nt	nt	108	21	-4.3	74
C/C=C/Cn1c(Br)nc2c1c(=O)[nH]c(=O)n2C
  -19	0.96	i	101	42	-0.5	117
Cc1cc(C)nc(N2CCCC(C(=O)Nc3ccc4c(c3)OCCO4)C2)n1 (centres undefined)
  7	0.89	i	94	-22	-2.1	131
CN1CCN(S(=O)(=O)c2ccc(NC(=O)c3ccc(Br)s3)cc2)CC1
  -2	0.87	i	98	45	-0.6	185
COC(=O)C1=C(C)NC(=O)NC1c1cn(-c2ccccc2)nc1-c1cccs1 (centres undefined)
  -5	0.93	i	102	-6	-0.3	85
Cc1ccc2c(c1)NCC(C(=O)NC1CCC(C)CC1)O2 (centres undefined)
  -5	nt	nt	110	-5	0.0	70
CCCS(=O)(=O)c1c(S(=O)(=O)CCC)c2cnccn2c1C(=O)c1ccc(OC)cc1
  nt	0.93	i	99	nt	nt	nt
COc1ccc(/C=C/C(=O)Nn2cnnc2)cc1
  -7	1.1	i	82	-100	-0.9	56
Cc1cccn2c(=O)c(/C=C(\C#N)S(=O)(=O)c3ccccc3)c(Oc3ccc(Cl)cc3)nc12
  2	0.93	i	103	-308	0.6	115
CC(C)OCCCNc1ncnc2c1cnn2-c1ccccc1
  -8	1	i	107	nt	-1.5	nt
O=C(Nc1ccc(N2CCOCC2)nc1)c1ccccc1Cl
  nt	0.88	i	101	nt	nt	nt
Cc1ccc(Nc2nc(C(=O)N3CCC(C(=O)N4CCN(C)CC4)CC3)cs2)cc1
  8	0.94	i	113	nt	-0.8	nt
C=Cc1ccc2c(c1)N(C)C(=C)S2
  -6	1.1	i	97	nt	nt	nt
CCC(C)(C)C1CCC2(CC1)NC(CO)(CO)CO2 (centres undefined)
  -2	0.97	i	98	nt	-1.0	nt
COc1ccc(C)cc1NC(=O)C(c1ccccc1)N1CCNC(=O)C1 (centres undefined)
  -4	0.88	i	101	-9	nt	87
COCCSc1ccccc1C(=O)NCCCn1ccnc1
  -4	0.75	i	101	30	-1.6	124
CCOC(=O)CN(C(=O)CSc1nnc(C)n1-c1ccccc1)c1cccc([N+](=O)[O-])c1
  -3	0.89	i	101	14	1.3	64
O=C(NCc1cccnc1)NC1CCCN1S(=O)(=O)c1ccc(Cl)cc1 (centres undefined)
  -3	0.98	i	98	nt	0.2	nt
O=C(CNS(=O)(=O)c1cccc(Cl)c1)OCc1csc(-c2ccccc2)n1
  2	0.88	i	100	19	-0.7	88
CC(=O)OCC(=O)[C@@]1(O)CC[C@H]2[C@@H]3CCC4=CC(=O)CC[C@]4(C)[C@H]3C(=O)C[C@@]21C
  nt	0.72	i	105	nt	nt	nt
O=C(NCC1CCCO1)C(c1cccs1)N(C(=O)Cn1nnc(-c2cccs2)n1)C1CCCC1 (centres undefined)
  -6	1	i	97	-441	-0.8	59
CN(C(=O)N1CCN(c2ccccn2)CC1)c1ccccc1
  -9	0.95	i	101	51	-2.0	89

Six of these compounds in another layout.
Compound,PKD1 inh,HSV augment primary fold,HSV augment,RGS16-Gao HTS,Insulin prom inh,GALR2 agonist,Insulin prom inh cell count
O=C(NCc1cccnc1)NC1CCCN1S(=O)(=O)c1ccc(Cl)cc1 (centres undefined),-3,0.98,i,98,nt,0.2,nt
O=C(Nc1ccc(N2CCOCC2)nc1)c1ccccc1Cl,nt,0.88,i,101,nt,nt,nt
O=C(Nc1ccc(Cl)cc1)c1sccc1-n1cccc1,-3,0.9,i,106,-56,nt,100
CCCS(=O)(=O)c1c(S(=O)(=O)CCC)c2cnccn2c1C(=O)c1ccc(OC)cc1,nt,0.93,i,99,nt,nt,nt
Cc1ccc(C(=O)C2CCN(CC(=O)N3CCN(c4ccc(F)cc4)CC3)CC2)cc1,0,0.96,i,96,-67,nt,131
CC(=O)OCC(=O)[C@@]1(O)CC[C@H]2[C@@H]3CCC4=CC(=O)CC[C@]4(C)[C@H]3C(=O)C[C@@]21C,nt,0.72,i,105,nt,nt,nt

(next part)
Values run as follows: PKD1 inh	HSV augment primary fold	HSV augment	RGS16-Gao HTS	Insulin prom inh	GALR2 agonist	Insulin prom inh cell count
CC(C)CCOc1cccc(OCC(=O)O)c1
  -1	1.2	i	352*[activator]	14	nt	116
C=CCn1c(SCC(=O)NNC(=O)Nc2cccc(Cl)c2)nnc1-c1ccccc1
  nt	1.1	i	87	nt	nt	nt
O=C(c1cccs1)n1nc(-c2ccco2)nc1SCc1ccccc1
  2	0.97	i	90	59	-0.1	33
CCCCCOC(=O)Cn1c(N2CCOCC2)nc2c1c(=O)[nH]c(=O)n2C
  -12	1	i	104	-21	-2.9	139
C/C(=N\NC(=O)c1nn(C)cc1Cl)c1ccncc1
  -2	1	i	106	-79	-0.3	82
CCOC(=O)c1sc(=NC(=O)c2cc(OC)c(OC)c(OC)c2)n(C)c1C
  8	0.78	i	87	-3	-2.6	99
COCC(=O)Nc1nc(-c2ccccc2)ns1
  0	0.97	i	108	38	-4.1	141
CCn1c(CSc2nnc(-c3ccoc3C)n2C)nc2cc(S(=O)(=O)N(C)C)ccc21
  -3	1	i	98&110	nt	-0.1	nt
COc1cccc(NC(=O)NC2CCCc3ccccc32)c1 (centres undefined)
  3	0.97	i	99	nt	nt	nt
COc1cc(CC(=O)OCC(=O)Nc2ccc(N3CCOCC3)cc2)cc(OC)c1OC
  -1	1	i	104	nt	nt	nt
CCC1Oc2ccc(C)cc2N(CC(=O)NCCC2=CCCCC2)C1=O (centres undefined)
  -13	0.9	i	94	-38	-0.1	102
O=C(NCc1cccs1)C1CCCN(c2nc3ccccc3o2)C1 (centres undefined)
  2	1	i	76	-85	-0.8	45
C=CCNc1nc(-c2ccccn2)nnc1-c1ccccc1
  -1	0.76	i	107	8	-3.5	95
CC(=O)N1CCN(CC(=O)Nc2ccccc2Sc2ccc(Cl)cc2)CC1
  -15	0.83	i	104	-7	-0.5	147
Fc1ccc2[nH]c3c(N4CCN(c5ccccc5)CC4)ncnc3c2c1
  -3	0.9	i	102	19	0.2	111
